RecA splice inh: blocks M. tuberculosis RecA intein splicing | inhibition, %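 (about 9 µM by stock and volumes)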 | cell-free RecA intein splicing, fluorescence | AID 2221 | P9WHJ3 | actives 0.75% (n = 290,000); in the data active = inhibition above about 30%;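 note: 0% = vehicle wells and 100% = reference inhibitor control wells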
Target sequence (P9WHJ3 whole entry, looked up, canonical isoform): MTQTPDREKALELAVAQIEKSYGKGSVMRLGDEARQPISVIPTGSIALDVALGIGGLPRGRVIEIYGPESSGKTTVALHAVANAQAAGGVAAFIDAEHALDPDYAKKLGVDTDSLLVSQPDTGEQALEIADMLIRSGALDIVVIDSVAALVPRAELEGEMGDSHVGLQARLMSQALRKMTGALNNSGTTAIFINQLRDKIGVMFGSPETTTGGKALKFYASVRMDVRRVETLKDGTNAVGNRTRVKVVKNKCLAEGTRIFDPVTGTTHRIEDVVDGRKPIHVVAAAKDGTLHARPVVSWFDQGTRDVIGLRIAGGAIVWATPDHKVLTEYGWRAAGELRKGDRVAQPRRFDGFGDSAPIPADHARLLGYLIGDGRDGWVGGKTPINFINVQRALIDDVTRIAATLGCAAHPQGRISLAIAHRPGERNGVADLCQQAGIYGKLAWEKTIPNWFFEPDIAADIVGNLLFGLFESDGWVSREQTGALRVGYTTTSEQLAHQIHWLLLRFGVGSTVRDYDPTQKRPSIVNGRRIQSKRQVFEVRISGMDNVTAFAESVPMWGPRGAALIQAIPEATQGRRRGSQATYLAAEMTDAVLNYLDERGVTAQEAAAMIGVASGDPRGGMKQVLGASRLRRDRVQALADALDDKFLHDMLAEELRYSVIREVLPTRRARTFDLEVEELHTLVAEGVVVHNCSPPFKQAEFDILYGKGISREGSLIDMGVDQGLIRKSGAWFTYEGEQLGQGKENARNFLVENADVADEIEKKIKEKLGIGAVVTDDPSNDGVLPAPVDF
Mtb betalactam: beta-lactam sensitization of Mtb H37Rv; actives 0.27% (n = 330,000); AID 434955; inhibition, % at 25 µM; M. tuberculosis H37Rv growth with meropenem, percent inhibition; hits of this screen are not shown here;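 active = about 74% or more and at least 40 points above the plate without the antibiotic, then above 30% in a dose series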;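 note: growth measured after seven days incubation then overnight dye step; 0% = bacteria only wells and 100% = bacteria with antibiotic; twin plates without the antibiotic show which effects depend on it; some results filed as inactive read as strong as hits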
YopH PTP inh: inhibitors of Yersinia enterocolitica YopH tyrosine phosphatase; fluorescence Ex485/Em525; actives 0.16% (n = 140,000); inhibition, %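 (about 10 µM by stock and volumes)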;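 active = inhibition of 50% or more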;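 note: controls were vehicle for no effect and minimum signal wells for full effect; inactives centre near -20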
Mtb H37Rv: M. tuberculosis H37Rv growth inhibitors, H37Rv strain (AID 1626). inhibition, % at 10 µM; hits with a dose series show IC50 in µM. M. tuberculosis H37Rv growth inhibition; higher % means a stronger effect. actives 0.95% (n = 220,000);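 active = confirmed in a dose series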;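 note: bacteria incubated seven days before Alamar blue readout; 0% = bacteria only wells and 100% = bacteria with antibiotic wells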
Arbovirus inh: blocks arbovirus infection | arbovirus infection cell-based antiviral screen | inhibition, % at 10 µM | actives 0.37% (n = 200,000);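 active = inhibition from about 30%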;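 note: bluetongue infection of BSR cells; cell survival read as ATP light after 72 h; 0% = infected wells without compound and 100% = uninfected wells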
Arbovirus inh repeat: second read-out of Arbovirus inh, no call of its own (marks repeat the call); inhibition, %; measured here: 10K subset replicate screen; many hits read low in the repeat;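 first of two repeat runs on a subset; 0% = infected and 100% = uninfected wells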
Starred values were filed as active, the others as inactive; · = not tested or not shown. These rows are one share of the data; rates above refer to the full screens.

SMILES	RecA splice inh	Mtb betalactam	YopH PTP inh	Mtb H37Rv	Arbovirus inh	others
CN1CCN(c2ccc(NC(=O)c3ccc(Cl)cc3)cn2)CC1	-1.2	5	·	3%	-7
COc1ccc(NC(C)=O)cc1NC(=O)CSc1nnc(C2CCCCC2)n1N	-2.4	0	·	·	·
COc1ccc(OC)c(-c2cc(C(=O)N3CCOCC3)no2)c1	-2.8	12	·	·	·
CCOC(=O)N1CCN(c2ccccc2O)CC1	-4.6	-12	24	-5%	8
Cc1sc2ncnc(N3CCC(C(=O)Nc4cc(S(C)(=O)=O)ccc4Cl)CC3)c2c1C	0.2	-5	·	·	·
COc1cc(C)ccc1OCCON1C(=O)CCC1=O	-0.7	-2	·	2%	-1
O=C(/C=C/c1c(Cl)cccc1Cl)NCc1ccccc1	-0.5	-5	-23	-7%	-4
CC(C)c1ccc(N(CC(=O)NCCSC(C)(C)C)S(C)(=O)=O)cc1	0.1	3	-7	-13%	-3
Cc1cccnc1-n1c(-c2ccccc2)nc2ccccc2c1=O	0.4	-1	-10	-5%	8
CCCNC(=O)N1CCN(c2nc(C(C)C)c3c(c2C#N)CC(C)(C)OC3)CC1	2.5	-2	-35	8%	-7	Arbovirus inh repeat=-11
COC(=O)c1ccc(NC(=O)C(=O)N2CCN(C(=S)Nc3ccc(OC)cc3)CC2)cc1	-0.9	-2	-26	10%	3
CCOC(=O)N1CCN(C2CC(=O)N(c3ccc(Cl)c(Cl)c3)C2=O)CC1 (centres undefined)	1.0	0	-26	-15%	12
COc1ccccc1N(Cc1cc2cccc(C)c2[nH]c1=O)C(=O)C(C)C	-12	-6	-36	1%	·
O=C(Nc1cc2c(cc1Br)OCCO2)c1ccco1	-0.6	-11	-33	-3%	-1
Nc1cc(=O)[nH]c(SCC(=O)Nc2cc(Cl)ccc2Cl)n1	-0.4	3	·	-4%	·
COc1cccc(-c2nc(CS(=O)CC(=O)O)c(C)o2)c1 (centres undefined)	-0.7	0	-34	-2%	8	Arbovirus inh repeat=6
CCOC(=O)c1nnc2ccnn2c1N	0.6	2	4	2%	1
CCOc1ccc(S(=O)(=O)N2CCCC(C(=O)N3CCCC3)C2)cc1 (centres undefined)	0.9	-7	·	·	·
CCN1CCN(c2ccc([N+](=O)[O-])cc2C(=O)OC)CC1	1.9	-3	·	4%	3
CCOC(=O)COc1c(Cl)cc(C2NC(=S)NC(c3ccccc3)=C2C(C)=O)cc1OCC (centres undefined)	0.1	-8	-18	2%	8
COc1cc(OC)cc(C(=O)N[C@H](C(=O)OCC(=O)NC(C)c2ccccc2)C(C)C)c1 (some centres undefined)	-3.4	-1	-27	1%	18
O=C(c1ccc2c(c1)OCO2)N1CCN(c2ccc(C(F)(F)F)cn2)CC1	1.6	5	-28	2%	2
Cc1ccc(N(C)C2=NC(=O)CS2)cc1Cl	4.0	-2	·	·	·
COC(=O)c1c(N2C(=O)CC(Sc3ccccc3C(=O)O)C2=O)sc2c1CCCC2 (centres undefined)	10.0	-1	·	-3%	5
COc1ccc(OC)c(C(c2nnnn2C2CCCC2)N2CCN(c3ccc(F)cc3)CC2)c1 (centres undefined)	8.1	-1	-39	12%	-2
(continued)
SMILES	RecA splice inh	Mtb betalactam	YopH PTP inh	Mtb H37Rv	Arbovirus inh	others
Cc1cc(F)ccc1NCc1ccc([N+](=O)[O-])cc1	1.9	7	·	6%	-25
Cc1ccccc1N1CCN(Cc2nc(Cc3ccccc3)no2)CC1	1.6	4	·	11%	4
COc1ccc(C(=O)Cc2cc3cccc(OC)c3oc2=O)cc1	-0.6	5	·	·	·
O=C1Nc2ccc(Br)cc2C1(O)c1ccc(F)cc1 (centres undefined)	3.1	6	·	·	·
Nn1c(CN2CCCCC2)nc2ccccc2c1=O	-0.4	-9	-5	4%	5
CNC(=O)OCc1n(C)cc[n+]1C	0.7	4	-25	1%	8
Cc1ccc(/C(O)=C2/C(=O)C(=O)N(CCN3CCOCC3)C2c2ccccn2)cc1 (centres undefined)	0.1	-9	-45	5%	-3
COc1ccc(-c2cc3nnc(-c4ccccc4)nc3s2)cc1	-2.6	6	3	·	-5
O=C(CN1CCc2[nH]c3ccccc3c2C1)N1CCCCC1	2.2	10	-35	3%	0
COc1ccc(-c2nc3n(c2Br)CCC3)cc1	1.6	3	10	3%	-4
CCOC(=O)c1sc(NC(=O)CSc2nncn2C)nc1C	0.7	0	·	5%	7
Cc1ccc(S(=O)(=O)NCc2ccc(C(=O)NCCCN3CCC(Cc4ccccc4)CC3)cc2)cc1	2.8	94	·	17%	-29
O=c1c2ccccc2nc(/C=C/c2cccc(Br)c2)n1CCCO	4.4	17	·	·	·
CCOc1cc(-c2nc(-c3ccncc3)no2)cc(OCC)c1OCC	-2.8	6	-34	4%	-7	Arbovirus inh repeat=-6
CCn1ncc(CNC(=O)CCSc2nc(-c3ccco3)cc(C(F)(F)F)n2)c1C	0.5	-16	-31	2%	0
O=C(Nc1ccccc1C(=O)N1CCOCC1)c1ccc(F)cc1	1.8	14	-6	-1%	3
O=C(NCC(=O)N(c1ccc(F)cc1)C(C(=O)NC1CCCCC1)c1cccnc1)c1ccco1 (centres undefined)	-0.4	-1	·	·	·
Cc1ccc(S(=O)(=O)/N=C2/C=C(Sc3ncn[nH]3)C(=O)c3ccccc32)cc1	·	2	100*	5%	-44
O=C(C1CCCC1)N(c1ccccc1)C1C=CS(=O)(=O)C1 (centres undefined)	4.7	3	-27	-3%	3
Cc1cc2cc3c(cc2nc1SCC(=O)Nc1ccccc1)CCC3	0.9	2	-30	-7%	-6
Cc1ccc(OCCC(=O)OCC(=O)NC(=O)c2ccccc2)cc1	-2.4	-13	·	·	·
COc1ccccc1N1CCN(CCc2ccccc2)CC1	3.6	-2	·	·	·
O=[N+]([O-])c1c(Nc2ccccc2O)ccc2nonc12	0.1	52	·	5%	-6
Cc1ccc(C(=O)Nc2ccccc2Cl)cc1	-1.0	-2	·	·	·
O=C(Nc1ccccc1)[C@@H]1CC=C[C@@H]2CCN(Cc3ccc(Cl)c(Cl)c3)C(=O)[C@@H]21	0.1	8	·	7%	·

Arranged by length of the SMILES (low to high): some entries from above
SMILES	RecA splice inh	Mtb betalactam	YopH PTP inh	Mtb H37Rv	Arbovirus inh	others
COc1ccccc1N1CCN(CCc2ccccc2)CC1	3.6	-2	·	·	·
CCOC(=O)c1sc(NC(=O)CSc2nncn2C)nc1C	0.7	0	·	5%	7
O=C(C1CCCC1)N(c1ccccc1)C1C=CS(=O)(=O)C1 (centres undefined)	4.7	3	-27	-3%	3

Other structures follow.
SMILES	RecA splice inh	Mtb betalactam	YopH PTP inh	Mtb H37Rv	Arbovirus inh	others
COc1ccccc1NS(=O)(=O)c1cc(NC(=O)Nc2ccccc2)ccc1N1CCCCC1	·	-7	-2	23%	7
COc1ccccc1CNS(=O)(=O)c1ccc(-n2cnnn2)c(C)c1	-3.5	6	·	·	·
O=C(NC(=S)N1CCCCC1c1cccnc1)c1ccc(F)cc1 (centres undefined)	-0.4	20	·	·	·
COc1ccc(CCC(=O)NCc2cn3ccsc3n2)cc1	-2.4	12	35	-9%	·
[N-]=[N+]=CC(=O)CC(c1ccccc1)N1C(=O)c2ccccc2C1=O (centres undefined)	0.3	-6	-33	·	-6
COC(=O)c1ccccc1Oc1ccc(NC(=O)CCCl)cc1	-0.2	-8	·	2%	-1
Cc1sc2ncnc(Sc3ccccc3C(=O)Nc3ccc(C#N)cc3)c2c1C	4.7	4	-17	8%	7
O=C(O)c1ccc(C(=O)c2ccc3c(c2)C(=O)N(CC2CCCO2)C3=O)cc1 (centres undefined)	-2.5	0	·	-12%	-4
CCS(=O)(=O)N1CCC(N2CCN(c3ccccc3)CC2)CC1	-5.2	-10	·	·	·
COCCn1c(SCC(=O)NNC(=O)Cc2ccccc2)nc2ccccc2c1=O	2.1	-2	·	-2%	6
COc1ccc(NC(=S)/N=C(\N)Nc2nc(C)c3ccccc3n2)cc1	0.5	19	·	5%	·
CC(c1ccco1)N(C(=O)C12CC3(C)CC(C)(CC(C)(C3)C1)C2)c1ccccn1 (centres undefined)	·	-2	29	0%	0
CCC(=O)Nc1ccc2c(c1)nc(CCN1CCCCC1)n2C	0.0	-2	·	·	·
CC1CC2(CCCC2)N(C(=O)c2ccccc2)Cc2ccccc21 (centres undefined)	4.1	3	-8	27%	1
O=C(Nc1ccc(N2CCN(C(=O)c3ccccc3)CC2)c(Cl)c1)c1ccc(Br)o1	9.8	·	-8	76%	-2
Cc1nnc(SCC(=O)NNC(=O)C(C)C)[nH]c1=O	-2.3	0	-6	6%	-3
Cc1c(Cl)cccc1NC(=O)NCCCN1CCCC1=O	0.5	-11	·	·	·
CCOC(=O)COc1c(/C=N\O)cc(Cl)cc1OC	-0.2	-3	·	7%	18

In the list so far, 17 have an aryl methoxy group:
SMILES	RecA splice inh	Mtb betalactam	YopH PTP inh	Mtb H37Rv	Arbovirus inh	others
COc1ccc(NC(C)=O)cc1NC(=O)CSc1nnc(C2CCCCC2)n1N	-2.4	0	·	·	·
COc1ccc(OC)c(-c2cc(C(=O)N3CCOCC3)no2)c1	-2.8	12	·	·	·
COc1cc(C)ccc1OCCON1C(=O)CCC1=O	-0.7	-2	·	2%	-1
COC(=O)c1ccc(NC(=O)C(=O)N2CCN(C(=S)Nc3ccc(OC)cc3)CC2)cc1	-0.9	-2	-26	10%	3
COc1ccccc1N(Cc1cc2cccc(C)c2[nH]c1=O)C(=O)C(C)C	-12	-6	-36	1%	·
COc1cccc(-c2nc(CS(=O)CC(=O)O)c(C)o2)c1 (centres undefined)	-0.7	0	-34	-2%	8	Arbovirus inh repeat=6
COc1cc(OC)cc(C(=O)N[C@H](C(=O)OCC(=O)NC(C)c2ccccc2)C(C)C)c1 (some centres undefined)	-3.4	-1	-27	1%	18
COc1ccc(OC)c(C(c2nnnn2C2CCCC2)N2CCN(c3ccc(F)cc3)CC2)c1 (centres undefined)	8.1	-1	-39	12%	-2
COc1ccc(C(=O)Cc2cc3cccc(OC)c3oc2=O)cc1	-0.6	5	·	·	·
COc1ccc(-c2cc3nnc(-c4ccccc4)nc3s2)cc1	-2.6	6	3	·	-5
COc1ccc(-c2nc3n(c2Br)CCC3)cc1	1.6	3	10	3%	-4
COc1ccccc1N1CCN(CCc2ccccc2)CC1	3.6	-2	·	·	·
COc1ccccc1NS(=O)(=O)c1cc(NC(=O)Nc2ccccc2)ccc1N1CCCCC1	·	-7	-2	23%	7
COc1ccccc1CNS(=O)(=O)c1ccc(-n2cnnn2)c(C)c1	-3.5	6	·	·	·
COc1ccc(CCC(=O)NCc2cn3ccsc3n2)cc1	-2.4	12	35	-9%	·
COc1ccc(NC(=S)/N=C(\N)Nc2nc(C)c3ccccc3n2)cc1	0.5	19	·	5%	·
CCOC(=O)COc1c(/C=N\O)cc(Cl)cc1OC	-0.2	-3	·	7%	18
